VACV Venus inh – vaccinia inhibition (Venus reporter). Vaccinia virus Venus reporter expression, fluorescence. Potency, µM (highest dose often 36.5 µM), inactives show top-dose activity change, negative = inhibition, most hits filed as inhibitors. hit rate 0.46% among 330,000; active means well fitted inhibition curve with a large enough effect; inconclusive means small, poorly fitted or top-dose-only effect; inactive means no such curve, though single readings can be large or run the other way; tested in A549 cells; note: nearly all actives have a fitted effect of over 30% in size; inactives centre near -10
VACV mCherry inh – inhibitors of vaccinia virus infection (mCherry reporter signal); Vaccinia virus mCherry reporter infection, fluorescence; about a quarter of the inactives have no number; Potency, µM (top dose mostly 36.5 µM), for inactives: top-dose activity change, negative = inhibition, actives largely listed as inhibitors; hit rate 0.63% among 310,000; active = well fitted inhibition curve with a large enough effect; inconclusive = small, poorly fitted or top-dose-only effect; inactive = no such curve, though single readings can be large or run the other way; tested in A549 cells; note: nearly all actives have a fitted effect of over 35% in size; inactives centre near -10
Active calls of the source: *; & = joins results of further samples; [ ] = another dose, or the depositor's remark. % is set by controls: 0 for no effect and ±100 for the full control effect; potency is the fitted concentration of half-maximal effect.

COc1ccccc1CNC(=O)CN1C(=O)NC(C)(c2ccc(C)cc2)C1=O (configuration not stated) was read as VACV Venus inh -13% and VACV mCherry inh -2%.
Screening O=C(Nc1cccc2c1CCCC2)c1cc([N+](=O)[O-])ccc1Cl returned VACV Venus inh -24% and VACV mCherry inh -5%[1.46 µM].
For Nc1ccc2c(c1)C/C(=C/c1ccco1)C2=O the results were VACV Venus inh -5% and VACV mCherry inh inconclusive.
CC[n+]1c(/C=C2\Sc3ccccc3N2C)ccc2cccc(C)c21 was read as VACV Venus inh inactive and VACV mCherry inh 14µM*.
COC(=O)c1[nH]c2ccccc2c1NC(=O)CN1CCN(C(=O)c2ccco2)CC1 was read as VACV Venus inh -8%.
`CN(C)S(=O)(=O)c1ccc2nnn(O)c2c1` gave VACV Venus inh 3% and VACV mCherry inh -11%.
`O=C1CC(=O)N(c2ccccc2)C(=O)N1` gave VACV Venus inh -10% and VACV mCherry inh -13%.
`C/C(=N\NC(=O)c1ccc(CN2CCOCC2)cc1)c1ccc(NC(=O)c2ccccc2)cc1` gave VACV Venus inh -1% and VACV mCherry inh inactive.
For O=C(N=Nc1c(O)[nH]c2ccccc12)c1cc(NS(=O)(=O)c2cccs2)cc(NS(=O)(=O)c2cccs2)c1 the results were VACV Venus inh -11% and VACV mCherry inh -3%.
For COCCNC(=O)c1ccc2c3n(nc2c1)-c1ccc(Cl)cc1CO3 the results were VACV Venus inh -5% and VACV mCherry inh -22%.
`Cc1cc(C)n2c(Nc3ccc4c(c3)OCCO4)c(-c3ccccn3)nc2n1` gave VACV Venus inh -26% and VACV mCherry inh inconclusive.
CCOc1ccc(NC(=O)C(=O)NCCCn2ccnc2)cc1 was read as VACV Venus inh -12% and VACV mCherry inh inactive.
For O=S(=O)(Nc1ccc(N2CCOCC2)cc1)c1c(F)cc(F)cc1Br the results were VACV Venus inh -8% and VACV mCherry inh -13%.
`CC(=O)Nc1ccc(NC(=O)C(C)OC(=O)CCCN2C(=O)c3cccc4cccc(c34)C2=O)cc1` (configuration not stated) gave VACV Venus inh -17% and VACV mCherry inh inactive.
For CCc1ccccc1NC(=O)C1CCCN(c2ncccn2)C1 (configuration not stated) the results were VACV Venus inh 12% and VACV mCherry inh -26%.
`COc1ccc(NC(C)C(=O)Nc2ccc(C(C)(C)C)cc2)cc1Cl` (configuration not stated) gave VACV Venus inh -18% and VACV mCherry inh -22%.
`O=C(COc1ccc(Br)cc1)N1CCN(Cc2ccncc2)CC1` gave VACV Venus inh -21%.
COc1ccc(OCC(=O)Nc2ccc(NC(=O)c3ccccc3Cl)c(OC)c2)cc1 was read as VACV Venus inh -16% and VACV mCherry inh -30%.
Screening O=C1CC(c2c(F)cccc2Cl)c2c(c3ccccc3oc2=O)O1 (configuration not stated) returned VACV Venus inh 3% and VACV mCherry inh -12%.
CCOc1ccc2c(c1)c(=O)c(C(=O)c1ccc3c(c1)OCO3)cn2Cc1cccc(F)c1 was read as VACV Venus inh -10% and VACV mCherry inh -19%.
For CN1C(=O)C(CC(=O)Nc2ccc(F)cc2)N(NC(=O)c2cccc(F)c2)C1=S (configuration not stated) the results were VACV Venus inh -15% and VACV mCherry inh -17%.
For COc1cc(C(C)=O)ccc1OCCCOc1cccc2cccnc12 the results were VACV Venus inh -22% and VACV mCherry inh inactive.
`Cc1cc2nc(-c3ccccc3)c(CC(C)(C)C)n2c(C)c1Br` gave VACV Venus inh 3% and VACV mCherry inh inactive.
For OCC1OC(n2cnc3c(SCc4ccccc4)ncnc32)C(O)C1O (configuration not stated) the results were VACV Venus inh inconclusive and VACV mCherry inh inconclusive.
CC(C)[C@H](NC(=O)OCc1ccccc1)C(=O)OCC(=O)N1CCCCC1 was read as VACV Venus inh 8% and VACV mCherry inh -3%.
`COc1cc(O)c(C(CCN2CCCC2)c2cc(OC)c(OC)c(OC)c2)c(OC)c1` (configuration not stated) gave VACV Venus inh -14% and VACV mCherry inh inactive.
For CCOC(=O)N1CCN(c2ncnc3c2[nH]c2ccc(F)cc23)CC1 the results were VACV Venus inh inconclusive and VACV mCherry inh inconclusive.
Screening COc1ccccc1/C=N/NC(=O)c1cccc2ccccc12 returned VACV Venus inh -12% and VACV mCherry inh -3%.
Screening CCOC(=O)N1CCN(C(=O)CSc2nc(=O)n3ccccc3n2)CC1 returned VACV Venus inh 1% and VACV mCherry inh -15%.
Screening Cc1csc2nc(CSc3nc4ccccc4o3)cn12 returned VACV Venus inh 2% and VACV mCherry inh -10%.
For Cc1cc(NC(=O)CCC(=O)N(c2ccc(F)cc2)C(C(=O)NC2CCCC2)c2cccnc2)no1 (configuration not stated) the results were VACV Venus inh 1% and VACV mCherry inh -16%.
For CCOc1ccc(/C(=N\O)C(C)NO)cc1 (configuration not stated) the results were VACV Venus inh -12% and VACV mCherry inh -10%.
For Cc1ccc(NC(=O)Cn2c(=O)nc(-c3ccccc3F)c3cc(Cl)ccc32)c(Br)c1 the results were VACV Venus inh -11% and VACV mCherry inh 0%.
`O=c1cc(-c2ccc(O)cc2)oc2c(C3OCC(O)C(O)C3O)c(O)c(C3OC(CO)C(O)C(O)C3O)c(O)c12` (configuration not stated) gave VACV Venus inh 6% and VACV mCherry inh inactive.
`CSc1nnc(C)c(=O)n1COC(=O)COc1ccc(Cl)cc1` gave VACV Venus inh 7% and VACV mCherry inh inactive.
Screening O=C1c2ccccc2C(Nc2ccc3c(c2)OCCO3)N1Cc1ccccc1 (configuration not stated) returned VACV Venus inh -8% and VACV mCherry inh -17%.

By substructure: the entries above containing a furan ring, fused or not
For Nc1ccc2c(c1)C/C(=C/c1ccco1)C2=O the results were VACV Venus inh -5% and VACV mCherry inh inconclusive.
COC(=O)c1[nH]c2ccccc2c1NC(=O)CN1CCN(C(=O)c2ccco2)CC1 was read as VACV Venus inh -8%.

The listing continues.
For COc1ccccc1C(=O)N1CCN(C2CCN(Cc3ccccc3)CC2)CC1 the results were VACV Venus inh -2% and VACV mCherry inh -14%.
`COc1ccc(CN(Cc2cccnc2)S(=O)(=O)c2ccc(-n3cnnn3)c(C)c2)cc1OC` gave VACV Venus inh -21% and VACV mCherry inh -14%.
`Cc1ccc(-c2cc(C(=O)N/N=C/c3ccc(Cl)cc3)n[nH]2)o1` gave VACV Venus inh 6% and VACV mCherry inh 5%.
`O=C1NC2=C(C(=O)CCC2)C(c2ccc3ncccc3c2)N1` (configuration not stated) gave VACV Venus inh -10% and VACV mCherry inh -5%.
`Cn1c2ccc(Cl)cc2c2nc3ccccc3nc21` gave VACV Venus inh 6% and VACV mCherry inh -5%.
CCOC(=O)C[n+]1c(C)csc1C was read as VACV Venus inh 0% and VACV mCherry inh -12%.
Screening Nc1cccc(CCc2ccncc2)c1 returned VACV Venus inh -2% and VACV mCherry inh -2%.
Cn1nccc1-c1coc2c(C(=O)NCc3ccccc3)cccc12 was read as VACV Venus inh -9% and VACV mCherry inh 15%.
CCOc1ccc(NC(=O)Cn2c(=O)n(Cc3ccco3)c(=O)c3oc4ccccc4c32)cc1 was read as VACV Venus inh -17% and VACV mCherry inh -9%.
Cc1cccc(NC(=O)CSCC(=O)Nc2ccccc2C(=O)NC2CC2)c1 was read as VACV Venus inh 1% and VACV mCherry inh -5%.
`O=C(CNC(=O)c1ccc(Br)o1)NCc1ccccc1` gave VACV Venus inh -4% and VACV mCherry inh -12%.
`COc1ccccc1N1CCN(C(=O)c2ccc(S(=O)(=O)N3CCCCC3)cc2)CC1` gave VACV Venus inh -23%.
For Cc1ccc(SCCn2nc(C(=O)O)c3ccccc3c2=O)cc1 the results were VACV Venus inh -1% and VACV mCherry inh 1%.
For CCC1(c2ccc(F)cc2)NC(=O)N(CC(=O)N2CCc3ccccc3C2)C1=O (configuration not stated) the results were VACV Venus inh -15% and VACV mCherry inh -12%.
CC(C(=O)Nc1sc2c(c1C(=O)NCc1ccco1)CCCC2)N1C(=O)c2ccccc2C1=O (configuration not stated) was read as VACV Venus inh -10% and VACV mCherry inh -11%.
For Cc1ccc(S(=O)(=O)N2CCN(Cc3ccccc3Cl)CC2)cc1 the results were VACV Venus inh 2% and VACV mCherry inh -1%.
Screening CCCC(=O)Nc1cccc(-c2nc3cc(C)c(C)cc3o2)c1 returned VACV Venus inh 4% and VACV mCherry inh -5%.
For O=[N+]([O-])c1ccccc1NCCNc1ncc(C(F)(F)F)cc1Cl the results were VACV Venus inh -25%.
C(=N\N1CCN(C2c3ccccc3-c3ccccc32)CC1)/c1ccncc1 was read as VACV Venus inh -13%.
Screening C/C(=N\NC(=S)NCCc1ccccc1)c1ccc(Cl)cc1Cl returned VACV Venus inh -14% and VACV mCherry inh -21%.
`O=C1c2ccccc2C(=O)N1c1ccccn1` gave VACV Venus inh -14% and VACV mCherry inh -17%.
CCOc1ccc(NC(=O)CSc2nc3ccccc3c(=O)n2CCCC(=O)NCCCN2CCCC2=O)cc1 was read as VACV Venus inh -15% and VACV mCherry inh inactive.
For COc1ccc(COC(=O)CCS(=O)(=O)c2ccc(C)cc2)cc1 the results were VACV Venus inh -3% and VACV mCherry inh -11%.
For CCN1CSC(=S)N(Cc2ccccc2)C1 the results were VACV Venus inh -10% and VACV mCherry inh inactive.
Screening CC1=C(C(=O)N(C(C)C)C(C)C)CC(CC(=O)NC2CCCCC2)C(=O)N1CCC1=CCCCC1 (configuration not stated) returned VACV Venus inh -11% and VACV mCherry inh 28%.
COCCCn1c(=O)/c(=C\c2ccc(OC(F)F)c(OC)c2)s/c1=C(/C#N)C(=O)NCCOC was read as VACV Venus inh -9% and VACV mCherry inh -18%.
For COCCC1CCCCN1C(=O)c1cc(COc2cccc(C(C)=O)c2)on1 (configuration not stated) the results were VACV Venus inh -8% and VACV mCherry inh -2%.
CCC(CC)C(=O)NCCc1cc2c(OC)ccc(OC)c2[nH]c1=O was read as VACV Venus inh inconclusive.
Cc1ccc(C(=O)OCC(=O)NC(C)C)cc1S(=O)(=O)N1CCOCC1 was read as VACV Venus inh -3% and VACV mCherry inh 0%.
COc1ccc(-c2cc(C(=O)Nc3ccc4c(c3)OCO4)no2)cc1OC was read as VACV Venus inh -15%&7% and VACV mCherry inh -18%&-4%.
For CCOC(=O)C1C2C=CC3(CN(c4ccc(Cl)c(F)c4)C(=O)C13)O2 (configuration not stated) the results were VACV Venus inh 0% and VACV mCherry inh -8%.
`CC(C)(C)OC(=O)NC(=NCCCc1cn(CC(=O)N2CCN(C(=O)OC(C)(C)C)CC2)nn1)NC(=O)OC(C)(C)C` gave VACV Venus inh 2% and VACV mCherry inh -12%.
CC(C)c1nc2ccc(C(=O)NCCCN3CCN(c4cccc(Cl)c4)CC3)cc2o1 was read as VACV Venus inh -4%[7.34 µM] and VACV mCherry inh -1%[7.34 µM].
Screening COc1ccc(NC(=O)c2cc(C3CCCCN3S(=O)(=O)c3ccccc3)on2)c(C)c1 (configuration not stated) returned VACV Venus inh -9% and VACV mCherry inh 31%[activator].
For O=C(NCC1CCCO1)c1cc2c([nH]c3ccccc32)c(-c2cccc(Br)c2)n1 (configuration not stated) the results were VACV Venus inh inconclusive and VACV mCherry inh inconclusive.
For NC(=S)N/N=C/c1coc2ccc(Br)cc2c1=O the results were VACV Venus inh -10% and VACV mCherry inh -1%.
C/C(=N\NC(=O)c1ccncc1)c1cccc(NC(=O)c2ccc(Cl)s2)c1 was read as VACV Venus inh -20% and VACV mCherry inh -6%.
CCCCc1nc2sc3c(SCC(=O)NCc4ccco4)ncnc3c2c2c1CCC2 was read as VACV Venus inh -6% and VACV mCherry inh -12%.
Screening O[C@H]1C[C@H](c2ccccc2)N(CC2CCCCC2)C[C@@H]1n1cc(C2CC2)nn1 returned VACV Venus inh -20% and VACV mCherry inh -10%.
For O=C1CCC(C(=O)N2CCN(c3cnccn3)CC2)CN1CCc1ccccc1 (configuration not stated) the results were VACV Venus inh -4% and VACV mCherry inh -9%.
Screening CC(CCC(C)C(C)(C)C)[C@@H]1CC[C@H]2C3C[C@H](OS(O)(=S)=S)[C@H]4C[C@H](OS(O)(=S)=S)[C@@H](OS(O)(=S)=S)C[C@]4(C)[C@H]3CC[C@]12C (some centres not stated) (tested in a mixture with another compound) returned VACV Venus inh inconclusive and VACV mCherry inh -26%.
Screening COc1ccc2c(c1)c1c(c(=O)n(-c3cccc(C)c3)c(=O)n1CC(=O)NCc1ccc(C)cc1)n2C returned VACV Venus inh -4% and VACV mCherry inh 1%.
For COc1ccc(NC(=O)N(C)C[C@H]2Oc3ncc(C#C[C@@H](C)O)cc3C(=O)N([C@H](C)CO)C[C@H]2C)cc1 the results were VACV Venus inh 1% and VACV mCherry inh -11%.

A draw from above in order of molecular weight, ascending.
For NC(=S)N/N=C/c1coc2ccc(Br)cc2c1=O the results were VACV Venus inh -10% and VACV mCherry inh -1%.
C/C(=N\NC(=O)c1ccncc1)c1cccc(NC(=O)c2ccc(Cl)s2)c1 was read as VACV Venus inh -20% and VACV mCherry inh -6%.
For O=C(NCC1CCCO1)c1cc2c([nH]c3ccccc32)c(-c2cccc(Br)c2)n1 (configuration not stated) the results were VACV Venus inh inconclusive and VACV mCherry inh inconclusive.
CCCCc1nc2sc3c(SCC(=O)NCc4ccco4)ncnc3c2c2c1CCC2 was read as VACV Venus inh -6% and VACV mCherry inh -12%.
Screening COc1ccc(NC(=O)c2cc(C3CCCCN3S(=O)(=O)c3ccccc3)on2)c(C)c1 (configuration not stated) returned VACV Venus inh -9% and VACV mCherry inh 31%[activator].
Screening COc1ccc2c(c1)c1c(c(=O)n(-c3cccc(C)c3)c(=O)n1CC(=O)NCc1ccc(C)cc1)n2C returned VACV Venus inh -4% and VACV mCherry inh 1%.
For COc1ccc(NC(=O)N(C)C[C@H]2Oc3ncc(C#C[C@@H](C)O)cc3C(=O)N([C@H](C)CO)C[C@H]2C)cc1 the results were VACV Venus inh 1% and VACV mCherry inh -11%.

Bioassay records as filed in PubChem.

Rows are unselected; 0.87% or so of the library scored in one or more.
